TRPML1 blocker: qHTS for Inhibitors of the Human Mucolipin Transient Receptor Potential 1 (TRPML1). TRPML1-inducible cells, Ca2+ dye fluorescence, FDSS; stronger effect = lower value; inhibition of EC80 agonist-evoked calcium signal. 390,000 compounds, 0.02% hits. AID 624415, 2012. activity change, negative = inhibition, % (test concentration not listed); in the data active means activity change below about -50%; inconclusive means about -30% to -50%; inactive means above about -30%;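 further: stimulus is agonist 54-4 at its EC80 concentration; on the % scale 0 is the no-effect control and ±100 the full control effect; compound concentration not given in the record; the text of the record puts the active cut at -80%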
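TRPML1-DL cells, Tet-induced overnight (~16 h, 37 °C) at 1,500 cells/well, were loaded with Ca8 no-wash dye plus quencher for 45-90 min at room temperature. Compounds were pinned during FDSS kinetic reading; agonist 54-4 at EC80 (4 uM final) then added.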
TRPML1 ag: qHTS for Agonists of the Human Mucolipin Transient Receptor Potential 1 (TRPML1) | TRPML1-expressing cells, Ca2+ dye fluorescence, FDSS; host cell line not named in the record; reference of the full effect not given here | activation, % (no concentration beside the values) | 410,000 compounds, 0.12% hits | AID 624414, 2012; in the data active = activation above about 50%; inconclusive = about 30% to 50%; inactive = below about 30%; further: 0% is about no effect; the text of the record puts the active cut at 80%
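TRPML1-DL cells, Tet-induced overnight (~16 h, 37 degrees C), loaded 45-90 min at room temperature with Ca8 no-wash calcium dye plus quencher. FDSS fluorescence: 10 s baseline, compound pin-transfer, 110 s agonist read, then EC80 54-4 (4uM final) and 110 s antagonist read.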
PINK1 modulator: A Quantitative High throughput Screen to Identify Chemical Modulators of PINK1 Expression; PINK1 immunofluorescence, high-content cytometry, 24 h; Potency, µM (series often up to 76.6 µM), for inactives: top-dose activation (PINK1 increase), hits mostly activators; 410,000 compounds, 0.2% hits; AID 624263, 2012; active = well fitted activation curve with a large enough effect; inconclusive = small, poorly fitted or top-dose-only effect; inactive = flat fitted curve, though single readings scatter; cell line not stated here;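 further: potency means the concentration at half of the fitted maximal effect; % of control where 0% means no effect; nearly all actives have a fitted effect of over 65% in size; a mitochondrial uncoupler was the plate control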
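Fluorescence from anti-PINK1 antibody, together with nuclear and cell stains, was scanned on a laser-scanning cytometer. Before staining, stable-line cells were incubated 24 hours with compounds at 5 concentrations; primary antibody 12 h at 10 degrees C.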
TRPV1 potentiator: HTS Assay for Compounds that Act as Potentiators of the Vanilloid Receptor 1 | potentiation, % at 8.33 µM | TRPV1-expressing cells, Fluo-8 calcium influx, capsaicin EC20 potentiation; host cell line not named in the record; control for the full effect not named in the record | Transient receptor potential cation channel subfamily V member 1 (Homo sapiens), Q8NER1 | 320,000 compounds, 0.02% hits; active means potentiation above 80%; inconclusive means 30% to 80%; inactive means below 30%; further: 0% is about no effect
Target sequence (Q8NER1 whole entry, looked up): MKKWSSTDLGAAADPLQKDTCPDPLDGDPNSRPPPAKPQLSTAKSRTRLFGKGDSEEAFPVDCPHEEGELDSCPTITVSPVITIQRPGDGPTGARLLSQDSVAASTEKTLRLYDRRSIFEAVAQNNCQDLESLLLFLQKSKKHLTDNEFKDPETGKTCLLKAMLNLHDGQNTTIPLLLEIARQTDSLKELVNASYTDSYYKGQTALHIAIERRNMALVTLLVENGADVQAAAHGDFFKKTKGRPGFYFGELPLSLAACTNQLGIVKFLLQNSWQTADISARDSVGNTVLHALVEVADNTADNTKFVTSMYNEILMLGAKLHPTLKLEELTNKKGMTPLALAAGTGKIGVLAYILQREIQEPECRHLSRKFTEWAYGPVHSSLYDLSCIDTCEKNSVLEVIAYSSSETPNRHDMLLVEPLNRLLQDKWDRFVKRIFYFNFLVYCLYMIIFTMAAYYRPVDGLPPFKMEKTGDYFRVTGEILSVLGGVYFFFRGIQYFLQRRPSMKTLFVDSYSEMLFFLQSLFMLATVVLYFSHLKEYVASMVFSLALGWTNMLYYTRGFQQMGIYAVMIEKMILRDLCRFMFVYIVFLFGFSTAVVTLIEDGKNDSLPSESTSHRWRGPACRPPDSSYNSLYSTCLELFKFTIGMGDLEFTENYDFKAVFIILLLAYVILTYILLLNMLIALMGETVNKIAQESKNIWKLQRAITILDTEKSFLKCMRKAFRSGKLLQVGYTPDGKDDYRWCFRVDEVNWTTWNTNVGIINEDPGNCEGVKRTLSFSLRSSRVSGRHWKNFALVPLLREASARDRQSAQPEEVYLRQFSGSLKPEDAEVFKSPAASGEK
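Fluo-8 calcium influx in TRPV1-expressing cells, kinetic read (ex 480/em 520 nm). Compound added and read 3 min for agonist activity, followed by capsaicin at EC20 final and 2 min further read for enhancement.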
Sfp inh: qHTS Assay for Inhibitors of Bacillus subtilis Sfp phosphopantetheinyl transferase (PPTase); Biochemical Sfp PPTase activity, qHTS; AID 1490, 2009; 4'-phosphopantetheinyl transferase ffp (Bacillus subtilis), Q9F4F7; 310,000 compounds, 3.5% hits; Potency, µM, inactives show max response, negative = inhibition, actives largely listed as inhibitors; active means well fitted inhibition curve with a large enough effect; inconclusive means small, poorly fitted or top-dose-only effect, or another doubt; inactive means no such curve, though single readings can be large or run the other way;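 further: the enzyme is Sfp with the accession as filed and its product quenches rhodamine fluorescence; potency means the concentration at half of the fitted maximal effect; 0% = enzyme reaction without inhibitor and -100% = no enzyme wells; top concentration of the series not given in the record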
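Compounds were incubated with enzyme (final 15 nM) for 15 min at room temperature before substrate addition started the reaction. Fluorescence at 525 nm excitation, 598 nm emission was recorded immediately and after 30 minutes.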
ClpP mod: qHTS Assay for Activators of ClpP; Potency, µM (highest dose often 57.5 µM), for inactives: at the highest dose activity change, negative = active; ATP-dependent Clp protease proteolytic subunit (Bacillus subtilis (strain 168)), P80244; purified B. subtilis ClpP, FRET peptide cleavage, 20 min; 340,000 compounds, 1.9% hits; active = well fitted falling curve with a large enough effect; inconclusive = small, poorly fitted or top-dose-only effect; inactive = no such curve, though single readings can be large or run the other way; further: potency means the concentration at half of the fitted maximal effect; the source files actives as falling curves though it sought activators and does not explain the sign; nearly all actives have a fitted effect of over 65% in size; many hits overshoot -100%
Target sequence (P80244 whole entry, looked up): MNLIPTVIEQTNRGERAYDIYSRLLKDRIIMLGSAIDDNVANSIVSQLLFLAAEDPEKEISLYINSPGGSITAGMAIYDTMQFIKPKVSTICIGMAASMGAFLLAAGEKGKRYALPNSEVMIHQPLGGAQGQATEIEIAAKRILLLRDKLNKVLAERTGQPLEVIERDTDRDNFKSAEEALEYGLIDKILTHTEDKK
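ClpP 10 microg/mL final, pH 8 Tris/KCl buffer with BSA, glycerol, Tween-20; compound pinned in; FRET-FV substrate; RT 20 min; Ex320/Em430; ΔFRET vs ADEP 5.8 microM, DMSO, no enzyme.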
Menin MLL FP FL: qHTS Assay for Inhibitors Targeting the Menin-MLL Interaction in MLL Related Leukemias: Competition With Fluorescein Labeled MLL-derived Peptide; FP activity change, % at 61.4 µM; 290,000 tested, under 10 active; Fluorescence polarization, fluorescein-MLL peptide displacement from menin; inconclusive = falling polarisation curve, or a change in total fluorescence; inactive = total fluorescence flat and polarisation flat or rising; no compound was filed as active; the % refers to the polarisation; negative = inhibition;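 further: % of control where 0% means no effect; inhibitors lower the polarisation; unlabelled MLL peptide was the positive control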
* marks the source's active call; other numbers are inactive results; u = inconclusive; x = no result given; [ ] = dose if it differs, or a comment. Rows were taken by chance. Share with any hit: about 4.4%.

cpd | SMILES | TRPML1 blocker | TRPML1 ag | PINK1 modulator | TRPV1 potentiator
1 | Cc1nc2nc(SCC(=O)c3ccccc3)[nH]c2cc1Br | 5 | 0.0 | 6.6% | 4
2 | COc1cc(C(=O)NC(C)c2cc(C)ccc2C)ccc1OCC(=O)N1CCOCC1 (configuration not stated) | 35 | -0.7 | -1.8% | -1
3 | COc1ccc(C(=O)N(C)CC(=O)Nc2cccc(F)c2)cc1S(=O)(=O)NC1CCCC1 | -3 | 1.1 | -1.2% | 9
4 | CC1CC2(C)C(=CC1=O)CCC1C2C(O)CC2(C)C1CCC2(O)C(=O)CO (configuration not stated) | -10 | 0.1 | 4.8% | x
5 | COc1ccc(Nc2n[nH]c(N)c2C(N)=O)cc1 | 2 | -0.6 | 0.2% | -3
6 | O=C(NCC1CCCO1)C(c1cccs1)N(Cc1ccccc1Cl)C(=O)c1ccc(-c2ccccc2)[nH]1 (configuration not stated) | 11 | 0.0 | 3.0% | 12
7 | Nc1cc(=O)nc(SCC(=O)Nc2ccc(F)cc2)n1-c1cccc(Cl)c1 | 1 | -0.8 | 2.7% | x
8 | Clc1cccc(CN2CCCCCC2)c1Cl | 14 | -1.6 | 3.6% | 11
9 | COc1ccc(NC(=O)c2c(NC(=O)COc3ccc(Cl)cc3)sc3c2CCCCC3)cc1 | 14 | 0.6 | 0.8% | x
10 | O=C(CCC1CCCC1)N=C1SC2CS(=O)(=O)CC2N1Cc1ccccc1 (configuration not stated) | 0 | -0.2 | 2.3% | -4
11 | Cc1ccnc(NC(c2ccncc2)c2c(C)[nH]c3ccccc23)c1 (configuration not stated) | 0 | -0.4 | 1.7% | -2
12 | O=C1CC(O)(C(F)(F)F)Oc2c1ccc1ccccc21 (configuration not stated) | 12 | 20 | x | -9
13 | CCOc1ccc(Br)cc1S(=O)(=O)Nc1cccc(S(=O)(=O)NC2=NCCC2)c1 | 10 | 0.7 | -0.3% | -8
14 | Cc1cc(C)c(NC(=O)C2CCN(c3nc4ccccc4n4cccc34)CC2)c(C)c1 | 46 | -0.4 | 2.9% | x
15 | Cn1c(NCc2ccccc2O)nc2ccccc21 | 3 | 0.2 | 1.4% | 6

cpd | Sfp inh | ClpP mod | Menin MLL FP FL
1 | 6% | 0.6% | 1.2
2 | x | -5.0% | x
3 | x | x | x
4 | x | x | x
5 | 14% | 2.1% | -0.3
6 | 1% | 32µM* | 2.7
7 | x | 0.2% | x
8 | -2% | -0.7% | -5.4
9 | x | 1.4% | x
10 | 12% | 1.4% | -1.0
11 | -7% | -2.4% | -0.6
12 | 20% | -29% | -1.1
13 | 14% | -1.3% | 0.5
14 | x | u | x
15 | -4% | -1.7% | 3.1

Next section, overlapping the part above by 2 compounds.
cpd | SMILES | TRPML1 blocker | TRPML1 ag | PINK1 modulator | TRPV1 potentiator
14 | Cc1cc(C)c(NC(=O)C2CCN(c3nc4ccccc4n4cccc34)CC2)c(C)c1 | 46 | -0.4 | 2.9% | x
15 | Cn1c(NCc2ccccc2O)nc2ccccc21 | 3 | 0.2 | 1.4% | 6
16 | Cc1noc(C)c1C(=O)N1CCC2(CC1)CCN(c1ncccn1)CC2 | x | x | 0.7% | x
17 | CCOC(=O)/C(C#N)=C\c1ccc(CC)s1 | 9 | 0.1 | 0.7% | 12
18 | COc1ccc(N2C(=O)C(CC(=O)Nc3ccccc3)N(Cc3ccc4c(c3)OCO4)C2=O)cc1 (configuration not stated) | 3 | -0.1 | 3.8%[38.3 µM] | -11
19 | CCOc1ccc(C(=O)NNC(=O)CCNC(=O)c2ccc(Br)cc2)cc1OC | 13 | 0.0 | -1.1% | 13
20 | O=C(CCC1CCCCC1)NCCN1CCOCC1 | 11 | 0.6 | -0.3% | -26
21 | Cc1ccc(NC(=O)CSc2nnc(NC(=O)CN3CCOCC3)s2)cc1 | -13 | 0.6 | -2.1% | 1
22 | CCOC(=O)c1cc2cc3ccccc3cc2[nH]1 | 0 | -0.2 | 1.4% | -1
23 | CCN(CC)S(=O)(=O)c1cc(OC)c(Cl)cc1Cl | 11 | 3.2 | 22%[38.3 µM] | -13
24 | CCCCOC(=O)Nc1ccc(C(=O)OCCC)cc1 | -10 | 0.7 | 5.8% | -19
25 | COc1ccc(C(=O)N2CC3(C)CC2CC(C)(C)C3)cc1 (configuration not stated) | 9 | 3.8 | -1.4% | -5
26 | Nc1cc(=O)[nH]n1C1CCCCC1 | -7 | -0.5 | -0.3% | 5
27 | CCOC(=O)CN1C(=O)Nc2ccc(Br)cc2C1c1ccccc1 (configuration not stated) | 23 | 2.6 | -2.7% | -12
28 | CCCCn1nnnc1SCC(=O)Nc1ccc(N(C)C)cc1 | -1 | 0.9 | 3.6% | u
29 | CCN1CCN(C(=O)CS(=O)(=O)Cc2nc(-c3ccc(C)cc3)oc2C)CC1 | 20 | 0.3 | 1.2% | -15
30 | O=C(CCCOc1ccccc1)n1nnc2ccccc21 | 7 | 0.6 | u | -3

cpd | Sfp inh | ClpP mod | Menin MLL FP FL
14 | x | u | x
15 | -4% | -1.7% | 3.1
16 | 13% | x | 1.6
17 | -1% | -2.2% | 1.3
18 | -8% | 1.5% | 2.0
19 | x | -1.0% | x
20 | 15% | -1.8% | -0.3
21 | -2% | -3.6% | -1.6
22 | -13% | 226% | 5.0
23 | -11% | -1.1% | 3.5
24 | 14% | 0.9% | -6.0
25 | 9% | -7.0% | 2.7
26 | 13% | x | 1.6
27 | -11% | -1.0% | 1.0
28 | -4% | -1.7% | 1.8
29 | 20% | -13% | -0.1
30 | 24% | 0.6% | 0.0

Remaining list, next part.
cpd | SMILES | TRPML1 blocker | TRPML1 ag | PINK1 modulator | TRPV1 potentiator
31 | C#CC(CC)(CC)NC(=O)c1c(C)noc1C | 5 | 0.3 | u | 2
32 | COC(=O)c1sc(NC(=O)COC(=O)C2CCC2)c(C(=O)OC)c1C | -8 | 0.1 | 6.9% | -9
33 | CCCN1CNc2c(c(=O)[nH]c(=S)n2CCc2cc(OC)cc(OC)c2)C1 | x | -0.6 | 0.0% | x
34 | CC(=O)N1CCN(C(=O)OC2CC3CC2[C@H]2CCCCN2C3=O)CC1 (some centres not stated) | x | -0.7 | 1.4% | x
35 | COC(=O)c1c(NC(=O)c2ccoc2C)sc(C)c1C | -3 | -0.3 | -0.4% | 6
36 | CC12CCC=CC1C(c1ccc3ccccc3c1)N(Cc1ccccc1)C2=O (configuration not stated) | 5 | 1.4 | x | x
37 | CCOc1ncccc1C(=O)Nc1ccc(-c2cn3ccsc3n2)cc1 | 2 | -0.4 | 3.2%[38.3 µM] | 1
38 | O=C(CN1CCN(Cc2ccccc2Cl)CC1)N=Nc1c(O)[nH]c2ccccc12 | 2 | 0.8 | u | 2
39 | Cc1ccc(C(C(=O)NC2CCCC2)N2CCc3ccccc32)cc1 (configuration not stated) | 24 | -1.0 | 5.3% | -18
40 | C/C(=N\OCC(=O)Nn1c(C)nc2ccccc2c1=O)c1cccs1 | 1 | 2.7 | 0.1% | 8
41 | O=C(NC1CCCCC1)c1ccc(-c2ccc(Cl)cc2)o1 | 26 | 2.1 | u | -1
42 | CCOC(=O)CSc1nc(N)c(C#N)cc1C#N | -16 | 0.2 | 0.8% | 26
43 | O=C(Nc1ccccc1)c1ccc(NCC2CCCO2)c([N+](=O)[O-])c1 (configuration not stated) | -15 | 0.9 | 1.3% | -23
44 | O=C(COC(=O)CCc1ccccc1)Nc1ccccc1OC(F)F | -13 | 0.4 | -0.9% | -9
45 | CCCc1nnc(SCC(=O)N2CCOCC2)n1CC1CCCO1 (configuration not stated) | -14 | 0.4 | 0.6% | -9

cpd | Sfp inh | ClpP mod | Menin MLL FP FL
31 | 4% | 1.5% | 4.9
32 | x | u | x
33 | x | 0.6% | x
34 | x | 1.5% | x
35 | 16% | 4.3% | x
36 | -10% | x | 0.2
37 | 13% | -2.4% | 0.5
38 | 5% | 1.0% | 2.8
39 | -9% | 1.6% | -1.2
40 | 10% | -0.4% | -2.5
41 | x | x | x
42 | -3% | 4.5% | 1.4
43 | -11% | -6.0% | 0.4
44 | 22% | x | 1.3
45 | 0% | 1.0% | -1.5

Along the list, as entered above:
Entries 33–43 in Sfp inh, in turn: x, x, 16%, -10%, 13%, 5%, -9%, 10%, x, -3%, -11%
Entries 33–43 in TRPML1 ag, in turn: -0.6, -0.7, -0.3, 1.4, -0.4, 0.8, -1.0, 2.7, 2.1, 0.2, 0.9
Entries 33–43 in Menin MLL FP FL, in turn: x, x, x, 0.2, 0.5, 2.8, -1.2, -2.5, x, 1.4, 0.4

New compounds follow:
cpd | SMILES | TRPML1 blocker | TRPML1 ag | PINK1 modulator | TRPV1 potentiator
46 | CCC(C)/C(C)=N/NC(=O)c1ccc(CSc2nc3ccccc3s2)cc1 (configuration not stated) | 17 | -0.2 | 4.4% | 4
47 | CC(C)CN1C(=O)c2ccc(C(=O)Nc3ccc(OCC(=O)O)cc3)cc2C1=O | -1 | -0.4 | -1.2% | -12
48 | Cc1c(/C=N/NC(=O)c2ccc(Br)o2)cnn1C | 0 | 0.4 | -0.7% | 4
49 | Cc1ccc(-c2nnc(SCC(=O)N/N=C/c3ccccc3C(=O)O)n2-c2ccc(C)cc2)cc1 | 11 | 5.0 | -0.3% | -1
50 | COc1ccccc1NCCC(=O)OCC(=O)Nc1cccc(S(=O)(=O)N(C)C)c1 | 1 | 1.3 | 0.6% | 21

cpd | Sfp inh | ClpP mod | Menin MLL FP FL
46 | 2% | -4.4% | 5.3
47 | 10% | x | -1.3
48 | 3% | x | 4.3
49 | 18% | -17% | 0.3
50 | x | 3.3% | x

Screening results: PubChem BioAssay, National Center for Advancing Translational Sciences (NCATS)
